# Screening data as filed in PubChem.
# Mtb hypoxia rep = reduces hypoxia-regulated biosensor signal in M. tuberculosis; M. tuberculosis hypoxia-regulated fluorescent reporter, fluorescence; fluorescence inhibition, % (concentration not given with the values); 0.1% of 300,000 active; AID 1159583;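 active means 35 to 45% if threefold the growth effect, above 45% if 1.5-fold the growth effect; inactive means the rest, general growth blockers included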;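 further: wells of about 50 µL received 100 nL stock; 0% = vehicle wells and 100% = reference inhibitor wells; whole bacteria with a GFP reporter of the hypoxia response; strong numbers were not always called active; many hits fall short of the cut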
# Bead autofluor = compound fluorescence in toxin protease inhibitor counterscreen; compound autofluorescence counterscreen, microsphere flow cytometry; active compounds read high; fluorescence intensity (test concentration not listed); 3.1% of 360,000 active;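 active means at least 3 SD above the mean of all compounds, about 16000 in these data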;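 further: 100 nL of 1 mM stock went into each well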
# ugtP null kill = kills S. aureus RN4220 lacking UgtP; growth inhibition, % (no concentration beside the values); 0.54% of 330,000 active; AID 1259309; S. aureus RN4220 ugtP deletion, OD600 growth, 16 h; some inactives read as strong as hits;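 active means z-score under -3 and OD600 up to 0.15 on both plates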;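 further: plate controls were untreated wells for no effect and antibiotic for full effect; wells of about 80 µL received 100 nL stock; the first replicate is given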
# RN4220 kill = kills Staphylococcus aureus RN4220; 0.33% of 330,000 active; S. aureus RN4220 growth, OD600, 16 h; inhibition, % (test concentration not listed);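 active means z-score of -3 or lower and OD600 up to 0.18 on both plates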;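 further: plate controls were untreated cells for no effect and reference antibiotic for full effect; stock transfer was 100 nL into about 80 µL; one replicate is shown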
# PrP UTR inh = suppresses PrP 5' UTR mRNA reporter expression. inhibition, % (concentration not given with the values). 0.35% of 340,000 active. cell-based PrP 5' UTR mRNA reporter, plate reader. AID 488862;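 active means every replicate at 50% or more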;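 further: 0 = median of the neutral control wells; tested in H4 reporter cells; numbers are from one replicate; inactives centre near -14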
# BJeLR viability = BJeLR cell viability loss. 0.17% of 300,000 active. AID 1554. BJeLR (HRASV12) viability, CellTiter-Glo ATP luminescence, 48 h; reference of the scale not given here. inhibition, % (no concentration beside the values);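 active means replicate mean above 50%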;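 further: 50 nL library stock added to about 25 µL; numbers are from one replicate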
# Mtb hypoxia rep growth = also measured in Mtb hypoxia rep; calls as there; growth inhibition, %; measured here: M. tuberculosis growth (absorbance);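 0% = vehicle and 100% = reference antibiotic; read after six days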
# Numbers without * were called inactive; · = not tested or not shown.
SMILES,Mtb hypoxia rep,Mtb hypoxia rep growth,Bead autofluor,ugtP null kill,RN4220 kill,PrP UTR inh,BJeLR viability
CCOP(=O)(OCC)c1ccc2c(c1)C(=O)c1ccccc1CC2,7,9,4123,3,7.5,-20,·
C=CCN1C(=O)c2ccc(C(=O)N(CC)CC(=O)Nc3c(F)cccc3F)cc2C1=O,-1,5,6273,4,0.6,-8,2
COCCNC(=O)CSc1nc2nc(C)cc(C)n2n1,6,0,22346*,7,1.0,-22,-7
O=C(Oc1ccccc1C(=O)N1CCOCC1)c1ccc(F)cc1,-19,-5,3521,0,-3.1,-11,5
CC(C)[C@H]1C(=O)Nc2ccccc2N1C(=O)N[C@@H](Cc1ccccc1)C(=O)N[C@H](Cc1ccccc1)C(=O)O,·,·,5098,6,-2.0,-7,1
COc1ccc(C(=O)Nc2cc(C)ccc2NC(=O)COc2ccccc2)cc1,19,10,2737,-6,-10,-2,-3
CCn1c(SCC(=O)NN=Cc2ccc(C)o2)nnc1-c1ccc(C(C)(C)C)cc1,-3,9,·,-7,9.2,·,·
Cc1ccccc1C1NS(=O)(=O)N=C1N (configuration not stated),-3,8,5727,-11,2.6,15,-4
CC1(C)CC(=O)c2c(-c3cccnc3)n[nH]c2C1,-4,3,15598,-4,-1.4,-16,-2
Cc1ccc(-c2nn(CCC(=O)NCC3CCCO3)c(=O)c3ccccc23)cc1 (configuration not stated),·,·,3164,6,5.1,-30,7
O=C(Nc1ccccc1)c1ccc(S(=O)(=O)Nc2cccc(O)c2)cc1,6,6,5682,7,-7.9,-32,9
CC(C)C(C(=O)NCC1CCCO1)N(Cc1ccco1)C(=O)CNS(=O)(=O)c1ccc(F)cc1 (configuration not stated),·,·,1990,4,4.6,1,-4
COc1ccc(NS(=O)(=O)c2ccc(Oc3c(C#N)cccc3C#N)cc2)cc1,4,12,4274,4,5.9,-9,9
O=C1C2C3C=CC(C4CC34)C2C(=O)N1/N=C/c1ccc(-c2ccc(Cl)cc2[N+](=O)[O-])o1 (configuration not stated),·,·,4989,·,·,-20,-1
Cc1nc(SCC(=O)Nc2nc3ccccc3s2)n[nH]1,11,-6,4517,1,0.6,-22,-3
C=CCNc1oc(C2CCCC2)nc1C#N,12,8,3688,-11,1.5,-18,·
CC(=O)NC(Cc1cc(C)ccc1C)C(=O)N1CCN(C(=O)Nc2ccc(C(C)=O)cc2)CC1 (configuration not stated),6,2,17945*,1,1.3,-15,-4
O=C(O)c1ccc(-n2cccc2/C=N\NC(=O)c2cc3cc(Br)ccc3o2)cc1,·,·,5101,·,·,-19,-2
COc1cccc(C(=O)NN2CC(O)=C(c3nc4ccccc4n3C)C2=N)c1,-2,0,·,1,-0.3,·,-8
CCOC(=O)C1CCN(S(=O)(=O)c2ccc(Cl)cc2OC)CC1,5,9,11412,-3,-0.2,-16,2
CCOC(=O)c1cnn2c(N)c(C#N)cnc12,2,-8,3522,11,2.7,-25,12
COc1ccc2cc([C@H](C)C(=O)N(C)Cc3ccccc3N3CCCC3)ccc2c1,16,1,21814*,18,-8.0,-18,9
COc1cc2c(cc1NC(=O)CN(C)Cc1cccc(OC)c1OC)oc1ccccc12,4,6,2480,-28,-6.0,-29,5
COc1ccc(/C=C/C(=O)c2sc(-c3ccccc3)nc2C)cc1,4,10,23221*,-2,1.0,-16,1
CN(Cc1cnccn1)C(=O)CC1C(=O)NCCN1Cc1c(F)cccc1Cl (configuration not stated),10,-2,5987,1,5.7,-22,0
# (continued)
SMILES,Mtb hypoxia rep,Mtb hypoxia rep growth,Bead autofluor,ugtP null kill,RN4220 kill,PrP UTR inh,BJeLR viability
N#C/C(=C\c1cc2ccccc2nc1N1CCCCC1)C(N)=O,7,14,2950,9,3.4,3,·
COC(=O)c1ccccc1NS(=O)(=O)c1ccc(NC(C)=O)cc1,5,2,4670,6,13,-5,-6
CCCC(CNC(CNC)C(C)CC)NCCc1cc(C(F)(F)F)cc(C(F)(F)F)c1 (configuration not stated),·,·,·,-4,-3.0,·,·
CCN(CC)S(=O)(=O)c1cc(NS(=O)(=O)c2cccc(C(=O)O)c2)ccc1C,14,5,4564,4,2.7,-30,0
COC(=O)c1cc2nc(-c3ccccc3)cc(C)n2n1,·,·,3972,-8,0.3,-10,2
C=CCn1c(N)nc2ccccc21,·,·,2420,7,1.5,5,-5
Clc1cccc(C=NNc2nccs2)c1,4,2,·,-11,2.7,·,·
Cc1ccc(-n2c(O)c(C=Nc3ccccc3-c3n[nH]c(=S)[nH]c3=O)c3ccccc3c2=O)cc1C,3,4,3251,56,56,-1,0
O=c1oc(-c2cccs2)nc2scc(-c3cccs3)c12,·,·,2856,-5,2.8,-15,-2
CCOC(=O)CN1C(=O)NC(c2ccccc2)C(C(C)=O)=C1C (configuration not stated),16,6,·,0,5.0,·,·
O=c1[nH]c(N2CCN(Cc3ccc4c(c3)OCO4)CC2)nc2c1CCC2,·,·,3773,2,-4.6,-12,·
COC(=O)[C@@H]1CC(O)CN1C(=O)C12CC3CC(CC(C3)C1)C2 (some centres not stated),5,-2,3824,8,2.5,-11,-1
Cc1ccc(CN2CCCN(Cc3cc(C)ccc3C)S2(=O)=O)cc1,-15,9,3581,15,-1.0,-28,-4
CCOC(=O)C1CCN(c2c(C(=O)c3ccccc3)cnc3ccc(Cl)cc23)CC1,·,·,5818,100*,55,-5,-15
NC(=O)CSc1nc2cc(Cl)ccc2c(=O)n1C1CCCCC1,4,2,3127,-1,-2.3,-5,-6
O=Cc1cn(-c2ccccc2)nc1-c1ccc(F)cc1,-4,5,3613,-7,2.5,-9,-10
O=C(O)c1cccc(NC2=C(N3CCOCC3)C(=O)c3ccccc3C2=O)c1,7,7,3552,8,11,·,0
O=C(O)c1cc(O)ccc1N=Nc1ccccc1,7,-5,3573,7,4.5,-8,1
O=C(NCc1ccccc1F)C1CCCN1C(=O)Nc1ccc(Cl)cc1 (configuration not stated),5,-3,3445,3,0.4,-36,-2
Cn1c(SCc2c(F)cccc2Cl)nnc1-c1cccs1,5,0,·,1,3.7,-60,-4
O=C(Cc1cn2ccsc2n1)Nc1ccccn1,23,-20,2954,1,-19,-10,5
CCCNC(=O)Cn1c2ccccc2c2nc(=O)cc(C)n21,·,·,5757,·,·,-19,-9
CN1C(=O)C(=Cc2coc3ccccc3c2=O)C(=O)N(C)C1=O,3,-2,5444,2,5.4,-14,-7
CCOC(=O)COc1ccccc1/C=C\[N+](=O)[O-],·,·,2241,·,·,-24,49
COc1ccc(-c2[nH]ncc2CN2CCCN(c3ccccc3)CC2)c(F)c1,4,2,4554,2,0.2,1,0
# Later entries.
SMILES,Mtb hypoxia rep,Mtb hypoxia rep growth,Bead autofluor,ugtP null kill,RN4220 kill,PrP UTR inh,BJeLR viability
Cc1cc(NC(=O)C2CCCN(S(=O)(=O)c3cnc[nH]3)C2)ccc1Br (configuration not stated),·,·,5266,6,-0.7,1,1
COc1ccc(/C=N/Nc2nnc(C)n2N)cc1OC,·,·,4082,·,·,76*,7
CC(SC(C)C(=O)NN=Cc1ccc(F)cc1)C(=O)NN=Cc1ccc(F)cc1 (configuration not stated),0,8,3310,-6,1.3,-9,·
Cc1ccc2[nH]cc(CCNC(=O)c3ccc4c(c3)OCO4)c2c1,2,6,3382,1,2.5,-16,0
CCN(CC)C(=O)C(C)OC(=O)c1ccc(O)cc1 (configuration not stated),2,-3,3307,-1,-0.9,-22,5
Nc1cc(C(=O)O)ccc1N1CCCCC1,8,2,3091,-3,-10,-18,3
CCOCCCNC(=S)NC1CC2CCC(C1)N2Cc1ccccc1 (configuration not stated),-3,4,3467,-1,1.9,-38,7
CCN(CC)CCOc1nnc(-c2ccc(C)cc2)c2ccccc12,·,·,2476,6,-2.8,-17,-1
Cc1cc(C)nc(NS(=O)(=O)c2ccc(Br)cc2)n1,15,10,4064,-4,9.9,-13,-2
O=[N+]([O-])c1cccc(NC(=S)NCc2ccncc2)c1,1,13,4816,3,4.6,-26,6
Cn1c(CCNC(=O)c2ccco2)nc2cc(NS(=O)(=O)c3ccccc3)ccc21,-2,8,8288,-19,5.2,-27,3
CCOc1ccccc1N1CC(C(=O)Nc2c(C)n(C)n(-c3ccccc3)c2=O)CC1=O (configuration not stated),9,2,2556,0,4.8,-13,-4
N=C1/C(=C\c2ccc(SCc3ccccc3)o2)C(=O)N=C2SC=NN12,17,-4,2070,22,35,-18,5
CC(=O)c1ccc(N2CCN(S(=O)(=O)c3cn(C)c(C)n3)CC2)cc1,-3,-8,4799,-6,-1.6,-4,-15
CCOC(=O)c1c(C)[nH]c(C(=O)COC(=O)CSCC(=O)N(CC)CC)c1C,17,13,3766,-6,3.1,-17,2
OCCNCCCOc1cc(Cl)ccc1Cl,11,3,4451,-3,2.9,-9,-5
O=C(N/N=C/c1ccc(Br)s1)c1cccs1,·,·,4306,·,·,-30,7
C=CCN=C(C)C1=C(O)C(C)OC1=O (configuration not stated),5,8,2079,6,0.3,-18,-5
COc1ccc(CCNCc2ccccc2F)cc1OC,7,8,2433,4,-9.7,-29,-3
C=CCN1CC(c2nc3ccccc3n2CCOc2ccccc2)CC1=O (configuration not stated),-14,4,22558*,-6,2.4,-32,1
CCOC(=O)c1cc(C)n(-n2cnnc2)c1C,3,13,6349,0,4.9,-21,7
Cc1cc(C)cc(NC(=O)CSc2nc3nc(C)cc(C)n3n2)c1,10,-2,4141,4,3.8,8,·
CCOC1OC(C(N)=O)=CC(c2csc3ccccc23)C1CCCO (configuration not stated),-3,-8,·,-1,7.0,·,·
N#CCC(=O)N/N=C/c1ccc(OCc2ccccc2)cc1,·,·,3313,·,·,-4,-1
COC(=O)C1=C(C(=O)OC)C2(OC1c1cccc(F)c1)C(=O)c1ccccc1C2=O (configuration not stated),3,4,6925,7,6.8,-18,-3
# Following part
SMILES,Mtb hypoxia rep,Mtb hypoxia rep growth,Bead autofluor,ugtP null kill,RN4220 kill,PrP UTR inh,BJeLR viability
COn1c(-n2nc(C)cc2C)nc2ccccc2c1=O,·,·,5304,0,0.5,-3,2
CC(C)Sc1nnc(-c2c[nH]c3ccccc23)n1C,-6,-7,5586,8,2.3,-21,-9
COC(=O)c1c(O)c2ccccc2[nH]c1=O,2,1,19580*,4,4.2,-41,14
O=C(Cn1c(=O)n(-c2ccccc2)c(=O)c2sccc21)NCc1ccccc1,4,6,4078,3,4.2,-16,12
COc1ccc(C(=O)NNC(=O)CCCCC(=O)NNC(=O)c2ccc(OC)cc2)cc1,0,4,3329,9,1.8,-16,4
CC12CCC(=O)N1C(C(=O)Nc1cccc(S(=O)(=O)N3CCCCC3)c1)CS2 (configuration not stated),13,-3,5661,5,-0.1,-10,1
CC(C)(C)OC(=O)NCC1CCN(S(=O)(=O)Cc2ccccc2)CC1,-4,0,3743,-1,3.0,-20,-1
Cc1ccc(OCc2n[nH]c(=S)n2-c2ccccc2)cc1,-9,2,4155,13,7.4,-6,0
CC(C)C[C@H](NC(=O)C1CC(=O)N(c2ccc3c(c2)OCO3)C1)C(=O)NCc1ccco1 (some centres not stated),-8,-5,5777,-2,4.6,-26,-1
COc1ccc(CCN2C(=O)CC(NCCc3ccc(S(N)(=O)=O)cc3)C2=O)cc1OC (configuration not stated),9,17,3891,-1,1.3,-5,-5
O=C(N/N=C/c1cccnc1)c1ccc(CN2c3cccc4cccc(c34)S2(=O)=O)cc1,·,·,4213,·,·,10,-2
COc1ccc(-c2c(-c3cc(OC)cc(OC)c3)n(C)c3ccc(-c4ccc(OC)nc4)cc23)cc1,7,9,3945,3,3.4,-2,·
O=C1CN(C(=O)c2cccc(S(=O)(=O)N3CCCC3)c2)c2ccccc2N1,2,4,4461,2,3.9,0,8
CC(C(=O)Nc1cccc(Br)c1)c1ccc([N+](=O)[O-])cc1 (configuration not stated),7,10,2689,-19,-3.4,-18,5
COc1ccc(NC(=S)N2CCN(Cc3ccc(C)cc3)CC2)cc1,7,18,4584,5,-0.1,-32,5
CCOC(=O)CNC(=O)CSc1ncnc2c1cnn2-c1ccc(OC)cc1,-5,5,2491,1,1.0,-8,-5

# Another view of some results above.
mol	Mtb hypoxia rep	Mtb hypoxia rep growth	Bead autofluor	ugtP null kill	RN4220 kill	PrP UTR inh	BJeLR viability
O=C(NCc1ccccc1F)C1CCCN1C(=O)Nc1ccc(Cl)cc1 (configuration not stated)	5	-3	3445	3	0.4	-36	-2
O=c1oc(-c2cccs2)nc2scc(-c3cccs3)c12	·	·	2856	-5	2.8	-15	-2
CCOP(=O)(OCC)c1ccc2c(c1)C(=O)c1ccccc1CC2	7	9	4123	3	7.5	-20	·
O=C(O)c1ccc(-n2cccc2/C=N\NC(=O)c2cc3cc(Br)ccc3o2)cc1	·	·	5101	·	·	-19	-2
COc1ccc(/C=N/Nc2nnc(C)n2N)cc1OC	·	·	4082	·	·	76*	7
